Screens: PubChem BioAssay, National Center for Advancing Translational Sciences (NCATS)
ClpP mod: qHTS Assay for Activators of ClpP | ATP-dependent Clp protease proteolytic subunit (Bacillus subtilis (strain 168)), P80244 | purified B. subtilis ClpP, FRET peptide cleavage, 20 min | Potency, µM (titrated, usually from 57.5 µM), without a hit: top-dose activity change, negative = active | 340,000 tested, 1.9% active; active = well fitted falling curve with a large enough effect; inconclusive = small, poorly fitted or top-dose-only effect; inactive = no such curve, though single readings can be large or run the other way; note: potency is the fitted concentration of half-maximal effect; the source files actives as falling curves though it sought activators and does not explain the sign; nearly all actives have a fitted effect of over 65% in size; many hits overshoot -100%
Target sequence (P80244 whole entry, looked up): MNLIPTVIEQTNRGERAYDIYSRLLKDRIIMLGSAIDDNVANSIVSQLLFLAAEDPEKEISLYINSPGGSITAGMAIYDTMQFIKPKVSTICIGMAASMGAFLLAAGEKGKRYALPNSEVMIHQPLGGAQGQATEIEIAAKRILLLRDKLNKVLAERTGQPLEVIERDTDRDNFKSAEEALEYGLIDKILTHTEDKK
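Purified B. subtilis ClpP, 10 microg/mL final in Tris/HCl pH8 with KCl, BSA, glycerol and Tween-20, cleaved an Abz/nitrotyrosine-quenched decapeptide. Fluorescence (ex 320, em 430) was read at 0 and 20 min at room temperature. Delta was normalized to 5.8 microM ADEP and DMSO/no-enzyme controls.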
gsp antagonist: qHTS for Antagonists of gsp, the Etiologic Mutation Responsible for Fibrous Dysplasia/McCune-Albright Syndrome: qHTS | gsp-mutant cells, cAMP HTRF, 30 min; control for the full effect not named in the record | Potency, µM (doses to about 76.9 µM), without a hit: at the highest dose activity change, negative = inhibition, usual class: inhibitors | 340,000 tested, 0.4% active; active = falling curve of any shape with a large fitted effect; inconclusive = falling curve, mostly with a smaller effect; inactive = flat or rising curve; cell line not stated here;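 note: intracellular cAMP measured with PDE inhibitor Ro 20-1724 present during compound exposure; potency is the fitted concentration of half-maximal effect; % is set by controls: 0 for no effect and ±100 for the full control effect; nearly all actives have a fitted effect of over 65% in size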
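G418-selected cells were plated in DMEM/10% FBS for 16-24 h at 37C, then treated with compounds plus the PDE inhibitor […] (300 uM solution added) for 30 min at 37C. Intracellular cAMP was measured by HTRF after 30 min lysis at room temperature.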
TRPML1 inh: qHTS for Inhibitors of the Human Mucolipin Transient Receptor Potential 1 (TRPML1); Mucolipin-1 (Homo sapiens), Q9GZU1; TRPML1-inducible cells, Ca2+ dye fluorescence, FDSS; stronger effect = lower value; inhibition of EC80 agonist-evoked calcium signal; activity change, negative = inhibition, % (no concentration beside the values); 390,000 tested, 0.02% active; AID 624415, 2012; in the data active means activity change below about -50%; inconclusive means about -30% to -50%; inactive means above about -30%;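 note: stimulus is agonist 54-4 at its EC80 concentration; % is set by controls: 0 for no effect and ±100 for the full control effect; compound concentration not given in the record; the text of the record puts the active cut at -80%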
Target sequence (Q9GZU1 whole entry, looked up): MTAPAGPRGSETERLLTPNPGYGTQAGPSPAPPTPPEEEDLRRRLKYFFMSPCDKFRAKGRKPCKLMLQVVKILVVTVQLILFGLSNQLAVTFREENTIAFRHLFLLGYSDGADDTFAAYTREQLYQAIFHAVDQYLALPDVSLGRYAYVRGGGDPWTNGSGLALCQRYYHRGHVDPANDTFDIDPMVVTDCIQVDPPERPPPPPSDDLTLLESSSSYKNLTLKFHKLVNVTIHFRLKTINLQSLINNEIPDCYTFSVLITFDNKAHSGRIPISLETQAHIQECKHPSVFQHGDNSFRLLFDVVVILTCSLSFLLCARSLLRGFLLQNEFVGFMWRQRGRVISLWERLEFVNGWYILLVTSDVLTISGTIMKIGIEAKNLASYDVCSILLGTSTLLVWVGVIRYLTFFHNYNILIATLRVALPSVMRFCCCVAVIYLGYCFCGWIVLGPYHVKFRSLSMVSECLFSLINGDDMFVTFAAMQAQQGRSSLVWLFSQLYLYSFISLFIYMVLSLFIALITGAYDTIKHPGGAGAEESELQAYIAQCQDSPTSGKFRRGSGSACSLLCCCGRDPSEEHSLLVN
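TRPML1-DL cells, Tet-induced overnight (~16 h, 37 °C) at 1,500 cells/well, were loaded with Ca8 no-wash dye plus quencher for 45-90 min at room temperature. Compounds were pinned during FDSS kinetic reading; agonist 54-4 at EC80 (4 uM final) then added.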
gsp ag: qHTS for Agonist of gsp, the Etiologic Mutation Responsible for Fibrous Dysplasia/McCune-Albright Syndrome: qHTS. gsp mutant cells, cAMP HTRF, 30 min; control for the full effect not named in the record. Potency, µM (highest dose often 76.9 µM), inactives show top-dose activation (cAMP increase), hits mostly activators. 340,000 tested, 0.13% active. AID 624287, 2012; active = well fitted activation curve with a large enough effect; inconclusive = small, poorly fitted or top-dose-only effect, or another doubt; inactive = no such curve, though single readings can be large or run the other way; cell line not stated here;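 note: phosphodiesterase inhibitor Ro 20-1724 added with compounds to block cAMP breakdown; potency is the fitted concentration of half-maximal effect; nearly all actives have a fitted effect of over 60% in size; about a fifth of the inactives were tested at one dose only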
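Cells in DMEM/10% FBS with G418 were pretreated with compounds in DMSO plus […] (300 uM stock) for 30 min at 37C. cAMP was measured by HTRF (cAMP-d2 plus anti-cAMP antibody-K) after 30 min at room temperature.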
TRPML1 ag: qHTS for Agonists of the Human Mucolipin Transient Receptor Potential 1 (TRPML1). TRPML1-expressing cells, Ca2+ dye fluorescence, FDSS; host cell line not named in the record; reference of the full effect not given here. activation, % (no concentration beside the values). 410,000 tested, 0.12% active; in the data active = activation above about 50%; inconclusive = about 30% to 50%; inactive = below about 30%; note: 0% is about no effect; the text of the record puts the active cut at 80%
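Kinetic FDSS Ca2+ read in Tet-induced TRPML1-DL cells (ABD Ca8 dye plus quencher, 45-90 min RT loading): baseline, then compound, then 110 s agonist window; EC80 agonist 54-4 at 4uM final added afterwards for a 110 s antagonist window.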
Menin-MLL FL inh: qHTS Assay for Inhibitors Targeting the Menin-MLL Interaction in MLL Related Leukemias: Competition With Fluorescein Labeled MLL-derived Peptide; Fluorescence polarization, fluorescein-MLL peptide displacement from menin; FP activity change, % at 61.4 µM; 290,000 tested, under 10 active; AID 1766, 2009; inconclusive = falling polarisation curve, or a change in total fluorescence; inactive = total fluorescence flat and polarisation flat or rising; no compound was filed as active; the % refers to the polarisation; negative = inhibition;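 note: % of control where 0% means no effect; inhibitors lower the polarisation; unlabelled MLL peptide was the positive control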
* = called active by the depositor; ? = inconclusive; . = not tested or not shown; & = joins results of further samples; [ ] = another dose, or the depositor's remark.

1	CC(=O)c1sc2nc(C)c3c(c2c1N)CCCC3
2	COCC(=O)Nc1cc(C(=O)Nc2cccc(C)c2C)ccc1Cl
3	O=C(NCc1ccco1)C1CC(=O)N(c2ccc(O)cc2)C1 (configuration not stated)
4	COc1ccc(NC(=O)COC(=O)CCc2ccccc2)c(OC)c1
5	Cn1cc(C(c2ccccc2)c2ccc(Cl)s2)c2ccccc21 (configuration not stated)
6	COCCCn1c(=O)c2ccccc2n(Cc2cccc(C)c2)c1=O
7	CCOC(=O)c1cnc(NCc2ccc(OC)cc2OC)c2ccccc12
8	CC(C)(C)c1cc(-c2nc(N)nc(N)n2)c(O)c(C(C)(C)C)c1
entry no.,1,2,3,4,5,6,7,8
ClpP mod,.,-1.3%,?,.,-2.8%,-14%,4.8%,-7.5%
gsp antagonist,-19%,2%,6%,4%,.,-4%,.,-7%
TRPML1 inh,-7,10,-11,7,16,-7,2,2
gsp ag,-4%[15.4 µM],-10%,1%,1%,.,5%,.,.
TRPML1 ag,0.5,0.2,-0.7,1.7,1.1,1.8,3.9,0.4
Menin-MLL FL inh,0.4,0.7,3.8,-3.1,.,-0.1,.,.

9	CCn1c(SCC(N)=O)nnc1-c1ccco1
10	Cc1ccc(Cl)cc1NC(=O)N1CCC(CN2CCc3ccccc3C2)CC1
11	CCSc1ncc(Cl)c(C(=O)Nc2ccccc2OC)n1
12	O=C(Nc1ccccc1)N1CCN(c2nc3ccccc3s2)CC1
13	Cc1ccc(S(=O)(=O)Cc2ccc([N+](=O)[O-])cc2)cc1
14	COc1ccc(N2C(=O)CC(N3CCN(c4ccccc4OC)CC3)C2=O)cc1 (configuration not stated)
15	CC1=C(C(=O)Nc2cccnc2)C(c2ccccc2)n2nc(SCc3ccccc3Cl)nc2N1 (configuration not stated)
16	O=C(O)CSc1nc2ccc(Br)cc2[nH]1
entry no.,9,10,11,12,13,14,15,16
ClpP mod,-0.9%,-12%,1.4%,1.4%,-2.5%,2.9%,-1.6%,.
gsp antagonist,11%,.,1%,-19%,1%,12%,.,9%
TRPML1 inh,-3,9,20,-10,0,7,-3,27
gsp ag,?,.,3%,29%,-3%[15.4 µM],-3%,.,24%
TRPML1 ag,-0.6,1.7,1.7,-0.1,-0.8,-0.1,0.1,1.0
Menin-MLL FL inh,-0.3,.,-1.0,-1.4,1.8,-1.3,.,.

17	CCC(=O)c1cn(CC(=O)NCC2CCCO2)c2ccccc12 (configuration not stated)
18	Cc1ccc(-n2ncc3c2CCCC3NC(=O)CCc2c(C)noc2C)cc1C (configuration not stated)
19	Cc1cccc(-n2c(CCCN3C(=O)c4ccccc4C3=O)nc3ccccc3c2=O)n1
20	CCCCOc1ccc(-c2c(C#N)c(N)nc(SCC(N)=O)c2C#N)cc1
21	CC(=O)c1c(C)[nH]c(C(=O)CN2C(=O)NC3(CCCCC3)C2=O)c1C
22	Cc1nc(N)ncc1CCC1OCCO1
23	CCCn1cc(CN2CCC(Cc3ccccc3)(C(=O)OCC)CC2)c(C)n1
24	CCOC(=O)C1CCN(S(=O)(=O)c2ccc(CN3C(=O)c4cccnc4C3=O)cc2)CC1
entry no.,17,18,19,20,21,22,23,24
ClpP mod,-5.8%,-1.2%,-0.5%,?,.,-17%,.,-2.2%
gsp antagonist,5%,-9%,13%,2%,4%,.,9%,-4%
TRPML1 inh,-2,-15,6,-1,-7,19,-11,-7
gsp ag,14%,28%,-28%,?,0%[15.4 µM],5%,7%[15.4 µM],-5%
TRPML1 ag,2.9,1.4,-0.5,-0.6,0.3,-0.5,-0.3,-0.9
Menin-MLL FL inh,-5.6,-0.5,5.8,2.0,.,.,2.8,-2.0

25	COCc1nnc(NS(=O)(=O)c2ccc(Cl)cc2)s1
26	CSc1ccc(NC(=O)N2CC(C)OC(C)C2)cc1 (configuration not stated)
27	CC(C)COc1ccc(Nc2ncnc3ccc(Br)cc23)cc1
28	CC(C)(C)Sc1ccc2nc3c(n2c1)CCCC3
29	O=C(NNC(=O)c1ccccc1O)c1ccc(S(=O)(=O)Nc2ccccc2F)cc1
30	CC(NC(=O)CCC(=O)N1CCN(S(=O)(=O)c2ccc(Cl)cc2)CC1)c1ccccc1 (configuration not stated)
31	CC(C)C[C@H](CO)Nc1nc(Nc2cccc(Cl)c2)c2ncn(C(C)C)c2n1
32	CCCn1nnnc1NC(=O)COc1ccc(Cl)cc1C
entry no.,25,26,27,28,29,30,31,32
ClpP mod,-8.4%,-5.4%,-0.9%,16µM*,.,-2.5%,?,0.9%
gsp antagonist,-13%,-8%,.,-17%,-6%,-18%,-6%,5%
TRPML1 inh,-1,-5,-1,34,-6,-12,0,0
gsp ag,13%[15.4 µM],?,.,-3%,-9%[15.4 µM],0%,.,-44%[inhibitor]
TRPML1 ag,0.6,-0.7,0.0,0.4,2.6,0.6,0.6,-0.7
Menin-MLL FL inh,-5.7,2.7,.,5.2,.,3.1,4.8,3.3

33	O=C(NC1CCN(C(=O)NCc2ccccc2)CC1)c1ccc(F)cc1
34	Cc1cc(C)n(C2CCCCC2OC(=O)CCc2ccccc2)n1 (configuration not stated)
35	O=C1CC(c2ccccc2)=Nc2ccccc2N1Cc1ccccc1
36	CCCNC(=O)CNC(=S)N(Cc1cc(OC)c(OC)c(OC)c1)C1CCCC1
37	O=[N+]([O-])c1ccc(Cl)cc1Sc1nc2ccccc2o1
38	CCc1c(-c2ccccc2)[n+](=O)c2c(n1[O-])CCC2
39	CC(=O)c1cccc(NC(=O)C(OC(=O)c2ccccc2NS(=O)(=O)c2cccs2)c2ccccc2)c1 (configuration not stated)
40	CSCc1c(C(=O)Nc2ccccc2N2CCOCC2)oc2ccccc12
entry no.,33,34,35,36,37,38,39,40
ClpP mod,.,.,.,-2.8%,-1.4%,0.5%,-11%,?
gsp antagonist,1%,2%,-13%,-1%,-2%,4%,-1%,-17%
TRPML1 inh,1,-3,-2,-1,24,2,?,66
gsp ag,8%,-2%[15.4 µM],10%[15.4 µM],26%,-46%[inhibitor],3%[15.4 µM],-41%[inhibitor],10%
TRPML1 ag,0.0,0.1,1.0,1.0,3.0,-0.1,0.0,1.4
Menin-MLL FL inh,2.4,-1.2,1.0,3.6,1.3,-0.8,12,.

One compound at a time, from the list above. Values in the order: ClpP mod	gsp antagonist	TRPML1 inh	gsp ag	TRPML1 ag	Menin-MLL FL inh
`Cc1cc(C)n(C2CCCCC2OC(=O)CCc2ccccc2)n1` (configuration not stated) in the list: .	2%	-3	-2%[15.4 µM]	0.1	-1.2
`CCCNC(=O)CNC(=S)N(Cc1cc(OC)c(OC)c(OC)c1)C1CCCC1` in the list: -2.8%	-1%	-1	26%	1.0	3.6
`O=C(NC1CCN(C(=O)NCc2ccccc2)CC1)c1ccc(F)cc1` in the list: .	1%	1	8%	0.0	2.4
`O=C1CC(c2ccccc2)=Nc2ccccc2N1Cc1ccccc1` in the list: .	-13%	-2	10%[15.4 µM]	1.0	1.0
`CSCc1c(C(=O)Nc2ccccc2N2CCOCC2)oc2ccccc12` in the list: ?	-17%	66	10%	1.4	.

(listing goes on)
41	O=C1NC(=O)C2(CCCCC2C2CCCCC2)N1 (configuration not stated)
42	Clc1ccc(-c2csc(Nc3cccnc3)n2)cc1
43	CC(=O)Nc1ccc(S(=O)(=O)Nc2cccc(C(=O)NC(C)(C)C)c2)cc1
44	CCNC(=O)Cn1cnc2c1c(=O)n(C)c(=O)n2C
45	COc1ccc(OC)c(NC(=O)c2[nH]c(C)c(C(C)=O)c2C)c1
46	CCc1[nH]nc2c1C1(CCN(C(=O)c3ccccc3)CC1)C(C#N)=C(N)O2
47	COc1ccc(S(=O)Cc2ccc(C(=O)N3CCN(C(=O)c4ccco4)CC3)o2)cc1 (configuration not stated)
48	COC(=O)C1=NN(N=O)C2(CC(=O)N(c3cc(C)cc(C)c3)C2=O)C1 (configuration not stated)
entry no.,41,42,43,44,45,46,47,48
ClpP mod,0.1%,.,-2.9%,-1.7%,-7.2%,0.6%,-0.4%,-4.5%
gsp antagonist,9%,1%,0%[15.4 µM],5%,-7%,-17%,-14%,-16%
TRPML1 inh,25,-17,-18,3,-18,-1,-3,-18
gsp ag,17%[15.4 µM],24%,-35%[inhibitor],-2%,?,8%,17%,-57%[inhibitor]
TRPML1 ag,0.1,-0.1,0.0,0.3,-0.5,0.0,-0.2,0.2
Menin-MLL FL inh,.,3.4,0.8,-2.5,1.4,7.9,.,?

49	Cc1ccc(CN(Cc2ccco2)C(=S)NCC(=O)O)cc1
50	CCn1c(C(=O)NCc2ccc(OC(C)C)cc2)cc2oc3ccccc3c21
51	CN=C(C)C1=C(O)C(C(=O)OC)C(C)(C)CC1=O (configuration not stated)
52	O=C(NCCCN1CCOCC1)c1ccc(CNS(=O)(=O)c2ccc(F)cc2)cc1
53	Cc1ccccc1N1CCN(S(=O)(=O)c2ccccc2)CC1
54	CCCCNC(=S)Nc1ccc2[nH]c(=O)[nH]c2c1
55	COc1ccc(NC(=O)CCNS(=O)(=O)c2cccc3nsnc23)cc1
56	CCc1ccc(CN(Cc2ccco2)C(=O)c2ccc(C)cc2)cc1
entry no.,49,50,51,52,53,54,55,56
ClpP mod,0.1%,4.5%,-1.3%,-2.4%,1.8%&-1.8%,-0.6%,0.4%,0.9%
gsp antagonist,2%,.,-1%,5%,8%,-4%,-5%,.
TRPML1 inh,0,-13,-9,-5,-2&4,11,-13&-2,3
gsp ag,-3%[15.4 µM],.,-16%,-1%,13%,-7%[15.4 µM],-12%,.
TRPML1 ag,-0.4,2.0,-0.9,1.6,3.1&-1.3,-0.4,-0.4&-0.1,1.9
Menin-MLL FL inh,5.2,.,4.7,6.4,-0.9,5.9,6.2,.
